miR-21 FLuc: miR-21 reporter, rising signal | AID 2288 | HeLa miR-21 FLuc reporter, luciferase, 48 h | Potency, µM (titrated, usually from 38.3 µM), inactives show at the highest dose reporter change, positive = more light | 340,000 tested, under 10 active; active = well fitted rising curve with a large enough effect; inconclusive = small, poorly fitted or top-dose-only effect; inactive = no such curve, though single readings can be large or run the other way;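 further: % of control where 0% means no effect; miR-21 action dims this reporter so a rising signal means less miR-21 action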
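Luminescence from a firefly luciferase reporter carrying a miR-21 binding site downstream, stably expressed under a CMV promoter in HeLa cells that make miR-21 endogenously, reports miRNA modulation after 48 h compound exposure up to approximately 40uM final.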
Rango-impB inh: inhibitors of Rango-importin beta complex formation. Potency, µM (doses to about 92.2 µM), for inactives: top-dose inhibition of complex formation. 0.031% of 340,000 active. Rango CFP/YFP FRET sensor + importin beta, 45 min. AID 540263; active = rising FRET ratio curve, often small or poorly fitted; inconclusive = mostly compound fluorescence or quenching in the first reads; inactive = flat curves in all reads;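 further: potency means the concentration at half of the fitted maximal effect; 0% = DMSO wells and 100% = buffer wells lacking importin beta; nearly all actives have a fitted effect of over 15% in size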
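Inhibition scored from the CFP 486 nm/YFP 530 nm FRET ratio 45 min after adding 0.125 microM importin beta to 50 nM Rango biosensor preincubated 5 min with compound (room temperature, PBS with DTT, Tween-20, BSA). No-importin wells as positive control.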
Rango release inh: inhibition of RanGTP-driven Rango-importin beta dissociation; O95149+P62826; Biochemical FRET Rango-importin beta, RanGTP-induced dissociation; 0.071% of 340,000 active; Potency, µM (series often up to 46.1 µM), inactives show at the highest dose activity change, negative = inhibition; active means falling FRET ratio curve, often poorly fitted, with flat reads before Ran was added; inconclusive means other falling curves, or compound fluorescence or quenching; inactive means flat or rising ratio curve;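 further: potency means the concentration at half of the fitted maximal effect; % of control where 0% means no effect; nearly all actives have a fitted effect of over 45% in size; -100% = wells without RanGTP and RCC1; the record marks most hits as doubtful in a second field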
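Quantitative HTS using a FRET biosensor: 0.1 uM Rango, 0.25 uM importin beta, 0.6 uM Ran, 2 mM GTP, 0.2 uM RCC1 final, PBS with DTT, Tween-20 and BSA. Post-read taken 45 min after Ran addition.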
GLA inh pH 4.5: inhibitors of human alpha-galactosidase A at pH 4.5 | P06280 | purified enzyme, 4-MU-alpha-Gal fluorescence, pH 4.5 | activity change, negative = inhibition, % at 105 µM | 230,000 tested, under 10 active | AID 1467; inconclusive = small, poorly fitted or top-dose-only inhibition, or a rising curve; inactive = flat fitted curve, though single readings scatter; no compound was filed as active;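 further: 0% = full activity with enzyme and -100% = basal without enzyme; dose as in the result columns while the protocol names 77 µM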
Target sequence (P06280 whole entry, looked up): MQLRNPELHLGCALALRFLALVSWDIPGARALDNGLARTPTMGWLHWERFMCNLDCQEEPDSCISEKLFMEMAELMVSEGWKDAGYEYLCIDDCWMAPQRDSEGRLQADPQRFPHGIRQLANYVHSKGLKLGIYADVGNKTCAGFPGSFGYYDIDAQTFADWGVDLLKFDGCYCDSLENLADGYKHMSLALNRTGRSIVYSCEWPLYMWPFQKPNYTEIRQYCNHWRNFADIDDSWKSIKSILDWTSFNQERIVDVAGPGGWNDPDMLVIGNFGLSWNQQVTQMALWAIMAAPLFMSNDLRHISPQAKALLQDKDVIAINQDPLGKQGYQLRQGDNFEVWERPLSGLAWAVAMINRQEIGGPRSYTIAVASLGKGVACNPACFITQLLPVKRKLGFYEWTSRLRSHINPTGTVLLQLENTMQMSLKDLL
* = called active by the depositor; ? = inconclusive; / = not tested or not shown. Only part of the results is shown (hit frequency here may not be typical).

miR-21 FLuc,Rango-impB inh,Rango release inh,smiles,GLA inh pH 4.5
-9%,0.5%,-6%,CCN(C(=S)Nc1cccc(C)c1)c1ccccc1,-6
-14%,5.7%,-2%,O=C(NCc1cccs1)C1CC(c2ccc(Cl)cc2)=NO1 (stereo not drawn),-9
-2%,2.6%,10%,Cc1ccc(-c2csc(NC(=O)CN3C(=O)CCC3=O)n2)cc1,-1
/,-0.1%,3%,CC(NC(=O)c1ccccc1)C(=O)Nc1ccccc1 (stereo not drawn),/
-12%,-1.3%,-18%,O=C(c1ccccn1)c1ccc2ccccc2n1,1
9%,-2.0%,9%,CNC(=O)CN(c1cc(OCCOC)c(Cl)cc1Cl)S(=O)(=O)c1ccccc1,3
-8%,0.0%,1%,Cc1ccc2oc(=O)cc(CN3CC(C)OC(C)C3)c2c1 (stereo not drawn),/
/,3.4%,-10%,C/C(=N\NC(=O)c1cc(C)oc1C)c1ccc(C)c([N+](=O)[O-])c1,/
-3%,-3.4%,-6%,COC(=O)CSc1cc(C)nc(NC(C)=O)n1,5
-9%,4.6%,8%,CC1CN(CCCSc2ccc(Cl)cc2)CC(C)O1 (stereo not drawn),-14
-6%,3.5%,3%,CCn1ncc(/C=N\NC(=O)c2ccc3c(c2)c(C)c(C)n3Cc2ccccc2)c1C,-2
-4%,-1.4%,-2%,CC(=O)N1CCC(C(=O)Nc2ccc3c(c2)CCC3)CC1,/
0%,-4.3%,?,CN(C)c1ccccc1C(=O)N1CCC(n2nccc2NC(=O)C2CC2)CC1,/
-40%,-2.4%,3%,COc1ccc(C(=O)c2nccc3ccccc23)cc1,-3
/,-1.0%,-11%,COc1cc(C(=O)OCC(=O)N2CCNC2=O)cc(Cl)c1OC,/
/,-0.3%,30%,CC1CN(C(=O)COC(=O)[C@@H](NC(=O)c2ccccc2Cl)C(C)C)CC(C)O1 (stereo partly drawn),/
/,0.6%,5%,CC(C)C(C(=O)Nc1ccccc1F)N1C(=O)c2ccccc2C1=O (stereo not drawn),/
1%,5.3%,-1%,CC[C@@]12C(=O)N(c3ccccc3)C(=O)N1[C@H](c1cccc(C)c1)[C@@H]1C(=O)N(Cc3ccccc3)C(=O)[C@@H]12,/
-2%,-2.5%,36%,Cc1cc(NC(=O)CSc2nc(C(C)C)nc3sc4c(c23)CCC(C)C4)no1 (stereo not drawn),-3
/,?,-15%,COc1ccc(OC)c(/C=C/C(=O)Nc2cccc(S(=O)(=O)NC3=NCCCCC3)c2)c1,/
0%,1.9%,1%,CCOC(=O)C1=C(C)Nc2ncnn2C1c1cccnc1 (stereo not drawn),3
-2%,5.4%,-11%,COc1ccc2cc(CN(CC3CCCO3)C(=O)Nc3ccccc3)c(=O)[nH]c2c1 (stereo not drawn),-4
-4%,3.9%,3%,CC1(C)C=C(c2ccc(C(=O)O)s2)CC(C)(C)N1,-4
12%,-4.3%,?,C=CCn1c(SCC(=O)N2CC(=O)Nc3ccccc32)nc2scc(-c3cccs3)c2c1=O,-2
-6%,0.6%,0%,COCC(=O)Nc1ccc2c(c1)OCC(=O)N2Cc1ccccc1F,/
-2%,-4.1%,16%,O=C(O)CN1C(=O)C(=O)N(Cc2ccc(Cl)c(Cl)c2)C1=O,/
-3%,1.1%,7%,O=C(CSCc1ccc(Cl)cc1Cl)Nc1ccc(O)cc1C(=O)O,/
1%,?,-1%,Cc1cccc(CN(CC(=O)N/N=C/c2ccco2)S(=O)(=O)c2ccc(Cl)cc2)c1,-5
1%,?,-28%,CC1(C)CC(=O)N(c2ccc(C#N)cc2)C(=O)C1,/
23%,0.3%,17%,Cc1cccc(Nc2ncnc3ccc(Br)cc23)c1,2

Of the compounds above, these have a furan ring, fused or not.
miR-21 FLuc,Rango-impB inh,Rango release inh,smiles,GLA inh pH 4.5
/,3.4%,-10%,C/C(=N\NC(=O)c1cc(C)oc1C)c1ccc(C)c([N+](=O)[O-])c1,/
1%,?,-1%,Cc1cccc(CN(CC(=O)N/N=C/c2ccco2)S(=O)(=O)c2ccc(Cl)cc2)c1,-5

In a second layout: entries from further up
C/C(=N\NC(=O)c1cc(C)oc1C)c1ccc(C)c([N+](=O)[O-])c1
  miR-21 FLuc: /
  Rango-impB inh: 3.4%
  Rango release inh: -10%
  GLA inh pH 4.5: /

COC(=O)CSc1cc(C)nc(NC(C)=O)n1
  miR-21 FLuc: -3%
  Rango-impB inh: -3.4%
  Rango release inh: -6%
  GLA inh pH 4.5: 5

CC1CN(CCCSc2ccc(Cl)cc2)CC(C)O1 (stereo not drawn)
  miR-21 FLuc: -9%
  Rango-impB inh: 4.6%
  Rango release inh: 8%
  GLA inh pH 4.5: -14

CCn1ncc(/C=N\NC(=O)c2ccc3c(c2)c(C)c(C)n3Cc2ccccc2)c1C
  miR-21 FLuc: -6%
  Rango-impB inh: 3.5%
  Rango release inh: 3%
  GLA inh pH 4.5: -2

The results go on:
miR-21 FLuc,Rango-impB inh,Rango release inh,smiles,GLA inh pH 4.5
-1%,-0.3%,-9%,COCCN1C(=O)c2cc(C(=O)Nc3cccc(F)c3)ccc2C1Nc1cccc(F)c1 (stereo not drawn),0
6%,-1.2%,-30%,CSc1sc(-c2ccnc(=S)[nH]2)c(-c2ccccc2)c1C#N,6
0%,-2.2%,-7%,O=C(Cn1cc([N+](=O)[O-])cn1)N1CCc2ccccc2C1,5
?,1.0%,1%,Cc1cccc(Nc2nc(N)nc(CCl)n2)c1C,2
1%,-2.6%,10%,O=C(CN1CCN(Cc2ccc3c(c2)OCO3)CC1)Nc1cc(S(=O)(=O)N2CCCC2)ccc1Cl,-3
-12%,8.7%,16%,O=C1/C(=C/c2cccs2)SC(=S)N1CC(=O)N1CCCCC1CCO (stereo not drawn),/
-4%,6.7%,-2%,Cc1ccc([N+](=O)[O-])cc1NC(=S)NC(=O)CC(C)(C)C,1
-13%,-2.1%,-6%,C/C(=N\NC(N)=O)c1cccc(Cl)c1,4
-2%,-2.1%,9%,COc1ccc(CCNC(=O)c2sc3cc(C)ccc3c2Cl)cc1,1
0%,0.4%,0%,Cc1cc(-c2nc3c4c5c(sc4[nH]c(=O)n3n2)CCC5)c(C)o1,4
-8%,-0.9%,1%,O=c1[nH]c2ccccc2nc1NCCN1CCOCC1,2
9%,-0.5%,-10%,O=S(=O)(c1cc(Cl)ccc1Cl)N1CCN2CCCC2C1 (stereo not drawn),/
8%,?,?,CCCCn1nc(NC(=O)CC)c2cc3cc(OC)ccc3nc21,/
2%,4.7%,2%,Cc1c(C(=O)NNS(=O)(=O)c2ccccc2)sc(=S)n1C,6
-2%,-0.1%,1%,COc1ccc(C(=O)O)cc1S(=O)(=O)Nc1ccc(C)cc1,-1
1%,0.3%,17%,COc1ccccc1-n1nnnc1SCC(=O)N1CCCC1=O,/
13%,-0.6%,5%,O=C(O)CSc1ncnc2sc3c(c12)CCC3,5
-28%,0.1%,-11%,O=Cc1c(-c2ccc(F)cc2)nc2ccccn12,4
-4%,1.6%,-4%,CCCCNCCCOc1cc(Cl)ccc1Cl,-1
-1%,4.1%,9%,O=C(Nc1ccc(C2CCCCC2)cc1)C1CCN(c2ncccn2)CC1,-2
/,0.9%,-16%,N=c1nc2n(cc1F)C1OC(CO)C(O)C1O2 (stereo not drawn),/
1%,2.7%,-7%,CCN(CC)CCn1c(=N)n(CC(=O)c2ccc(Br)s2)c2ccccc21,-3
2%,-0.3%,-11%,CN(C)C(=O)Cn1cnc2c(cnn2-c2ccc(F)cc2)c1=O,/
-6%,-3.0%,25%,Cc1cnc(NC(=O)Cc2ccccc2Cl)s1,/
/,1.7%,0%,CC1Cc2cc(/C(O)=C3/C(=O)C(=O)N(CCCn4ccnc4)C3c3ccc([N+](=O)[O-])cc3)ccc2O1 (stereo not drawn),/
-20%,-4.0%,-14%,COc1ccc([C@@H]2[C@@H]3C(=O)N(C(C)(C)C)C(=O)[C@@H]3[C@]3(CC(C)C)C(=O)N(c4ccccc4)C(=O)N23)cc1,/
0%,-0.1%,14%,O=C(COC(=O)c1ccc2c(c1)C(=O)N(Cc1ccncc1)C2=O)Nc1cccc2ccccc12,1
17%,-5.1%,-22%,CC(NC(=O)c1cccnc1)C(c1cccs1)N1CCN(c2ccccc2F)CC1 (stereo not drawn),1
0%,?,-14%,CC1(C)CC(=O)C(C=Nc2ccc(O)c(N=CC3=C(O)CC(C)(C)CC3=O)c2)=C(O)C1,1
-33%,?,5%,OCCN1CCN(CC(O)COc2ccc(-c3ccccc3)cc2)CC1 (stereo not drawn),0
/,-0.8%,1%,O=C(CN1C(=O)c2ccc([N+](=O)[O-])cc2C1=O)Nc1cc(S(=O)(=O)N2CCOCC2)ccc1Cl,/
0%,-2.6%,-8%,O=C(CN1C(=O)COc2ccc(Cl)cc21)NC1CC1,/
6%,-3.8%,28%,COc1ccc(N2CC(C(=O)Nc3nc4ccc(S(C)(=O)=O)cc4s3)CC2=O)cc1 (stereo not drawn),/
-1%,0.7%,7%,CCOc1ccc(Br)cc1CN(CC)CC,-7
-55%,0.4%,0%,CNC(=S)N1CCN(c2nc3ccccc3s2)CC1,6
-2%,5.9%,14%,O=C(O)c1ccccc1-c1nc(-c2ccccc2)c(-c2ccccc2)[nH]1,1
9%,-0.3%,-4%,Cc1ccc(CS(=O)(=O)Cc2ccc(C(=O)NC3CC3)o2)cc1,/
-15%,-0.4%,2%,CC(C)(C)C(=O)N1CCN(c2ccc([N+](=O)[O-])c(NCc3cccnc3)c2)CC1,0
/,?,-25%,COC(=O)CNC(=O)C1Nc2ccccc2C2C=CCC12 (stereo not drawn),/
-15%,-0.4%,22%,COCc1nnc(NC(=O)c2ccc(NC(=O)C(C)C)cc2)s1,1
/,-1.4%,5%,Cc1cccc(NC(=O)COC(=O)Cc2cccs2)c1C,/
-3%,?,?,CCCc1cc(=O)oc2c(CN3CCCC3)c(O)c(Cl)cc12,?
-1%,-4.8%,-3%,Brc1ccc(-c2ccc(/C=N/Nc3nncc(-c4ccccc4)n3)o2)cc1,5
/,-2.2%,4%,Cc1ccc2c(CSc3nc4ccccc4c(=O)n3CCCO)cc(=O)oc2c1,/
-1%,-2.6%,9%,COc1cc(C(C)=O)ccc1OCC(=O)NCC1(N2CCCCC2)CCCCC1,0
/,-1.3%,-2%,Nc1nc(CSc2nnnn2-c2ccc(F)c(Cl)c2)nc(N2CCOCC2)n1,/
-2%,0.7%,22%,CC1CCCN(C(=O)C2CCC(CNc3c(N4CCCCC4)c(=O)c3=O)CC2)C1 (stereo not drawn),-2
-9%,-0.3%,21%,COC(=O)C(COC(=O)c1c(F)cccc1F)NC(=O)c1c(F)cccc1F (stereo not drawn),/
1%,-4.8%,6%,CCOC(=O)Cc1c(C)nc2c(-c3ccccc3)c[nH]n2c1=O,-6
8%,1.9%,2%,CC(=O)Nc1ccc(S(=O)(=O)Oc2ccccc2N2CCCCC2)cc1,-9
-1%,-2.0%,-13%,CCOC(=O)CSc1nc(N2CCOCC2)c2c(c1C#N)CC(C(C)C)OC2 (stereo not drawn),/
15%,-3.5%,-24%,COc1nc(NC(=O)c2ccc(F)cc2)nc(OC)c1-c1ccccc1,/
/,-2.4%,-11%,O=C(C[C@@H]1C/C=C\C[C@@H](Cc2ccc(F)cc2)C(=O)OC[C@H]2CCCN2C1=O)N[C@H](CO)Cc1ccccc1,/
/,3.5%,-1%,CC(=O)Nc1ccc(C(=O)Nc2cccc(S(=O)(=O)N(C)c3ccccc3)c2)cc1,/
3%,-0.5%,13%,Cc1cc(=O)nc2c3ccccc3n(C(C)C(=O)Nc3c(F)c(F)c(F)c(F)c3F)n12 (stereo not drawn),-3
-46%,-0.6%,-3%,C/C(=N\NC(=O)c1cc(Cl)ccc1O)c1ccc(Br)s1,0
-72%,-2.8%,27%,O=C(O)c1cc(N/N=C/c2cccnc2)ccc1Cl,-9

Bioassay records deposited in PubChem by National Center for Advancing Translational Sciences (NCATS).
